# GIV-Gai inh: inhibitors of GIV GBA-motif binding to rat Galpha-i3; P08753; Galpha-i3/FITC-GIV peptide fluorescence polarization, 90 min; active compounds read low; scaled: aluminum fluoride 0%, vehicle 100%; percent of control (FP), % (no concentration beside the values); 210,000 tested, 0.42% active;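 active = replicate mean at 85% of control or lower, very high polarization wells dropped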;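 note: wells of about 15 µL received 100 nL stock; the first replicate is given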
# Target sequence (P08753 whole entry, looked up): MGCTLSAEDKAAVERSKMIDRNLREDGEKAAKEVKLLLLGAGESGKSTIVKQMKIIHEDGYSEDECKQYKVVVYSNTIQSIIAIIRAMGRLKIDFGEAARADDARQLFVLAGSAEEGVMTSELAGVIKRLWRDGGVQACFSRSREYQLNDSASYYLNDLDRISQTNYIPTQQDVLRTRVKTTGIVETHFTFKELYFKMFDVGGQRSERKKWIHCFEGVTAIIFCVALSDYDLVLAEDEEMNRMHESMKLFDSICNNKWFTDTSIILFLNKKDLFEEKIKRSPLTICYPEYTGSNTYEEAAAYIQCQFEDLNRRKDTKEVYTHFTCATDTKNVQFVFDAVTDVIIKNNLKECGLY
# HCMV UL50-53 inh: disrupts HCMV UL50-UL53 complex binding | HTRF UL50-UL53 interaction, normalized percent inhibition | inhibition, % (concentration not given with the values) | 190,000 tested, 0.15% active | AID 1918969;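 active = both replicates at 50% or more, plus weaker picks with an unusually low signal ratio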;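 note: stock transfer was 100 nL into about 20 µL; 0% = negative control wells and 100% = wells with untagged competitor protein; inactives centre near -12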
# Sa growth 42C: blocks Staphylococcus aureus growth | 170,000 tested, 0.53% active | S. aureus RN4220 growth, OD600, 20 h, 42 °C; active compounds read low | AID 720641 | relative growth, % (concentration not given with the values);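 active = growth at 42 °C up to 50% and 20 or more points under that at 30 °C, or under 10% at both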;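 note: 300 nL library stock went into each well; scaled to the means of positive and negative controls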
# Sa growth 42C second temp: second read-out of Sa growth 42C, no call of its own (marks repeat the call); relative growth, %; measured here: growth at 30 °C;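 optical density after 20 h as mean of two plates; 100% = untreated growth and lower means inhibition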
# * hit, by the source's call; . = no result given.
SMILES,GIV-Gai inh,HCMV UL50-53 inh,Sa growth 42C,Sa growth 42C second temp
Cc1ccc2snc(C(=O)N3CCN(C(=O)c4ccc(F)cc4)CC3)c2c1,101,-28,.,.
Cc1cc(C)n(CCc2nc3c4ccccc4nc(N4CCN(c5cccc(C)c5C)CC4)n3n2)n1,102,-7,100,94
Cc1ccc(N2C(=O)NC(c3ccccc3)(C(F)(F)F)C2=O)nc1 (stereo unspecified),97,-11,120,96
Cc1ccc(Cl)cc1NC(=O)CSc1nc2c(c(=O)[nH]1)CN(Cc1ccccc1)CC2,105,-12,118,100
CCc1ccccc1-n1nnc(-c2nsc(NC(=O)c3ccc(C)c(C)c3)n2)c1C,107,.,106,108
O=C(Nc1ccccc1[N+](=O)[O-])c1csnn1,101,-143,95,65
CN=C1S/C(=C\c2ccc(-c3cc(Cl)ccc3[N+](=O)[O-])o2)C(=O)N1C,113,-11,.,.
Cn1nc(-c2ccc(OCC(=O)Nc3ccccc3)cc2)c2ccccc2c1=O,100,-18,95,91
O=S(=O)(Nc1cc(F)ccc1F)c1ccc2[nH]c3c(c2c1)CCCCC3,102,.,88,101
Cc1csc(-n2[nH]c(C)c(CC(=O)N3CCN(c4ccccc4)CC3)c2=O)n1,100,-9,.,.
CC(=O)Nc1ccc(S(=O)(=O)NCCC(c2ccccc2)c2ccccc2)cc1,.,0,94,79
Cc1ccc(N(C)S(=O)(=O)c2ccc3c(c2)C(C)(C)C(=O)N3C)cc1C,100,.,79,86

# The closing 6 compounds of the part above are carried over, then new ones follow.
SMILES,GIV-Gai inh,HCMV UL50-53 inh,Sa growth 42C,Sa growth 42C second temp
CN=C1S/C(=C\c2ccc(-c3cc(Cl)ccc3[N+](=O)[O-])o2)C(=O)N1C,113,-11,.,.
Cn1nc(-c2ccc(OCC(=O)Nc3ccccc3)cc2)c2ccccc2c1=O,100,-18,95,91
O=S(=O)(Nc1cc(F)ccc1F)c1ccc2[nH]c3c(c2c1)CCCCC3,102,.,88,101
Cc1csc(-n2[nH]c(C)c(CC(=O)N3CCN(c4ccccc4)CC3)c2=O)n1,100,-9,.,.
CC(=O)Nc1ccc(S(=O)(=O)NCCC(c2ccccc2)c2ccccc2)cc1,.,0,94,79
Cc1ccc(N(C)S(=O)(=O)c2ccc3c(c2)C(C)(C)C(=O)N3C)cc1C,100,.,79,86
O=C(CN1C(=O)/C(=C\c2ccc(F)cc2)N=C1c1ccccc1)c1ccco1,111,-21,94,94
COc1ccc(C(=O)Oc2c(Cl)cc(/C=C3\SC(N)=NC3=O)cc2OC)cc1,108,-13,.,.
CCOC(=O)C1CCCN(C(=O)Cn2ncc3c4ccccc4n(Cc4ccc(F)cc4)c3c2=O)C1 (stereo unspecified),107,15,100,95
Cc1ccc2[nH]c(=O)c(CN(Cc3nnnn3CCc3ccccc3)C3CCCC3)cc2c1,105,-32,107,80
S=C1Cc2ccccc2N1,.,7,44,43
Nc1cccc(CCc2ccccn2)c1,104,-6,101,96
CS(=O)(=O)N1Cc2ccccc2CC1C(=O)OCC(=O)c1ccccc1F (stereo unspecified),.,-25,107,92
Nc1c(-c2nc(-c3ccc4c(c3)OCO4)cs2)nnn1-c1ccc(Br)cc1F,109,-26,.,.
COC(=O)CN1C(CN2CCOCC2)=Nc2ccc(Br)cc2C1c1ccccc1 (stereo unspecified),106,-1,99,89
O=C(CC1(O)C(=O)N(Cc2ccccc2)c2ccccc21)c1ccc(Br)cc1 (stereo unspecified),111,.,137,107
Cn1c(SCC(=O)N2CCOCC2)ncc(C(=O)Nc2ccccc2)c1=O,100,.,113,90
Cc1csc(C/C(N)=N/O)n1,.,-37,79,84
Cc1ccc(C)c(Nc2nn3c(=O)c4cc5c(cc4nc3s2)OCO5)c1,102,-5,94,91
CS(=O)(=O)c1cccc(-c2nnc(NC(=O)c3ccc4c(c3)OCCO4)o2)c1,99,.,96,82
COc1ccccc1COC(=O)C1CCC1,.,11,109,102
Fc1ccc([C@@H]2Nc3ccccc3[C@@H]3C=CC[C@@H]32)cc1,109,-33,96,87
O=C1CN(C(=O)COc2ccccc2)C(c2ccc(F)cc2)c2cc(Br)ccc2N1 (stereo unspecified),101,4,75,74
Cc1cccc(C)c1OCC(=O)N1CCc2ccccc21,.,-6,110,88
N#Cc1nc2c(-c3nc4ccccc4s3)c(N)n(Cc3ccccc3)c2nc1C#N,106,2,93,73
O=C(Cc1ccc(-n2c(=O)[nH]c3ccccc3c2=O)cc1)NC1CCCCC1,107,7,100,87
COc1ccc(-c2c3c(=O)n(C)c(=O)n(C)c3c3n2-c2ccccc2NC3c2ccc(O)cc2O)cc1 (stereo unspecified),103,-14,129,73
Cc1cc2c(cc1NS(=O)(=O)c1ccc(Br)cc1)n(C)c(=O)c(=O)n2C,107,.,72,88
COc1c(F)c(F)c(C(=O)O)c(Nc2cccc(C)c2)c1F,107,15,91,88
COc1ccccc1NCC(O)Cn1ccc2ccccc21 (stereo unspecified),104,-12,113,85
CN1CCN(C(=O)Nc2cccc(F)c2)c2cccnc21,105,-9,.,.
c1ccc(-c2ncc3c(n2)-c2ccccc2CC3)cc1,94,-18,.,.
CCOC(=O)c1c(C)c(-c2ccccc2)n(CC(=O)NC2CCCCCC2)c1C,98,-5,98,86
CCn1cnc(S(=O)(=O)N2CCCC(C(=O)NCCC3=CCCCC3)C2)c1 (stereo unspecified),104,0,.,.
COc1cc(C(F)(F)F)nc2ccc(C)c(N)c12,108,-17,108,86
COc1ccc(OC)c(NC(=O)Cc2c(C(=O)O)n(C)c3ccc(C)cc23)c1,104,9,108,79
O=C(c1ccco1)N(Cc1ccccc1)Cc1cn(-c2ccccc2)nc1-c1ccc(F)cc1,103,0,108,98
CC1CC(C)(C)Nc2ccc(OC(=O)c3ccco3)cc21 (stereo unspecified),95,.,71,53
O=C(Nc1ccccc1F)c1cnn(-c2ccccc2)c1,102,-13,.,.
CCCN1C(=O)/C(=c2\sc3n(c2=O)C(c2ccc(OC)cc2)C(C(=O)OC)=C(C)N=3)c2ccccc21 (stereo unspecified),105,-24,.,.
Cc1ccc(-c2nnc(OCc3nc4ccccc4n3C)c3ccccc23)cc1,102,-1,.,.
COc1cccc(Cc2nnc(-c3ccc4nsnc4c3)o2)c1,103,-7,87,88
O=S(=O)(c1ccc(F)cc1)N1CCC2(CC1)Nc1cc(F)ccc1-n1cccc12,103,9,.,.
CCc1nc(N2CCc3ccccc32)c2onc(-c3ccccc3)c2n1,102,-26,.,.
CS(=O)(=O)N1CCN(c2ccc(C#N)cn2)CC1,100,-3,113,69
Cc1cc2ncn(CCc3noc(-c4ccccc4)n3)c2cc1C,95,-10,64,49
Cc1nc2ccc(C(=O)OCCC(F)(F)F)cc2[nH]1,.,-2,103,88
CCOc1ccc(N2CC(c3nc4ccccc4n3C(C)C)CC2=O)cc1 (stereo unspecified),106,.,103,81
COc1ccccc1C(=O)N(Cc1ccc(N(C)C)cc1)CC1CCCO1 (stereo unspecified),108,4,.,.
Cc1ccccc1C1Nc2ccccc2S(=O)(=O)N1 (stereo unspecified),102,.,92,84
Cc1nn(C)cc1N(C(=O)c1cnccn1)C(C(=O)NC1CCCCC1)c1cccc(F)c1 (stereo unspecified),105,-17,.,.
COc1cccc(NC(=O)CCCn2c(=O)c3cccn3c3cccnc32)c1,102,.,105,66
CCS(=O)(=O)N1CCC(N2CCN(Cc3ccccc3)C(=O)C2=O)CC1,96,-24,.,.
CC(=O)N1CCCc2cc(S(=O)(=O)N3CCC(C(=O)Nc4cccc(Cl)c4C)CC3)ccc21,98,.,97,87

# Profiles as entered above. Order of values: GIV-Gai inh | HCMV UL50-53 inh | Sa growth 42C | Sa growth 42C second temp
# CN1CCN(C(=O)Nc2cccc(F)c2)c2cccnc21 in the list: 105 | -9 | . | .
# O=C(CN1C(=O)/C(=C\c2ccc(F)cc2)N=C1c1ccccc1)c1ccco1 in the list: 111 | -21 | 94 | 94

# The list goes on:
SMILES,GIV-Gai inh,HCMV UL50-53 inh,Sa growth 42C,Sa growth 42C second temp
Cn1nccc1NC(=O)/C=C/C(=O)O,98,-27,98,88
CCOC(=O)[C@H](CCc1ccccc1)N[C@@H](C)C(=O)N1[C@H](C(=O)O)C[C@H]2CCCC[C@@H]21,96,-10,.,.
COC(=O)c1cccc(-c2ccc(/C=C3\Sc4ccccc4C3=O)o2)c1,163,5,.,.
CC1CCCC(C)N1Cc1ccc(N)cc1 (stereo unspecified),.,-8,101,96
O=C(Cn1cnc2ccccc2c1=O)NCC(=O)NC1CCCCC1,.,1,102,90
CCC(C)NC(=O)CN1C(=O)C(C)=C(c2ccc(C)cc2)S1(=O)=O (stereo unspecified),98,-46,.,.
Cc1ccccc1CC(=O)Nc1ccccc1,107,1,104,106
O=Cc1ccc(/C=C2\SC(=S)N(CC(=O)O)C2=O)cc1,101,-6,.,.
O=C(Nc1nc2ccccc2s1)c1ccc(=O)[nH]c1,.,-5,63,68
O=C(O)c1c[nH]c2ccc(S(=O)(=O)N3CCc4ccccc4C3)cc2c1=O,99,2,92,87
O=c1nc(Oc2cccc(C(F)(F)F)c2)cc(Oc2cccc(C(F)(F)F)c2)[nH]1,.,-3,96,94
CC1(C)CC2(CCO1)OC(=O)CC2C(=O)Nc1ccc(Cl)c(Cl)c1 (stereo unspecified),107,-19,97,82
CN(C)c1ccc2c3c(cccc13)C(=O)N(c1nc3ccccc3n1C)C2=O,146,4,100,90
O=C1/C(=C/c2ccccc2)CCC1C1CCCC1 (stereo unspecified),96,.,101,86
COc1cc2c(=O)n(Cc3ccc(C(=O)NC4CC4)cc3)c(=O)n(Cc3ccc(F)cc3)c2cc1OC,110,-6,.,.
Cc1ccc(N(C)S(=O)(=O)c2nnc(NC(=O)CC(C)C)s2)cc1,103,-28,103,90
NC(=O)C1CCN(C(=O)CN2C(=O)/C(=C/c3ccccc3F)Sc3ccccc32)CC1,103,.,89,77
CCn1c(=O)c(SCC(=O)N2CCN(c3cccc(OC)c3)CC2)nc2ccccc21,119,-71,.,.
CN(C)S(=O)(=O)c1ccc2c3c(cccc13)C(=O)N2C(=O)c1cccs1,108,2,97,98
CCCC1c2ccc(C)n2CCN1C(=O)Nc1ccc(F)cc1 (stereo unspecified),116,-26,.,.
Cc1c2cnn(CC(=O)NCc3ccccc3)c(=O)c2c(C)n1Cc1cccc(Cl)c1,109,-4,116,96
c1ccc(COC(CNC2CCCCC2)CNC2CCCCC2)cc1,100,-25,99,82
Cc1c(Cl)cccc1NC1=NCC(=O)N1C1CCCC1,105,-4,118,82
CC(C)n1c(CN2CCCC2)nc2ccccc21,111,1,.,.
CC1=CC(=C2C(=O)N(c3ccccc3)N=C2C)C=C(C)N1Cc1ccco1,.,3,89,93
CCn1cc(CCC(=O)NCc2cccc(OC)c2)c2ccccc21,109,-15,.,.
COc1ccc2c(c1)CCc1sc(/N=C/c3ccc(C)cc3)nc1-2,111,.,74,84
C=CCn1c(COc2ccccc2)nnc1SCC(N)=O,104,-14,95,105
CCN(CC)CCNC(=O)C1CCCN(c2ccc(-c3ccc(C)cc3)nn2)C1 (stereo unspecified),98,-73,.,.
CCOCCc1nn2c(=O)cc(COC(=O)c3ccccc3NC(=O)CC(C)C)nc2s1,103,.,91,78
C=CCNC(=O)Cc1coc2cc(C)ccc12,100,-18,98,99
Cc1ccc(NC(=O)c2cnc3ccccn3c2=O)c(C)c1,105,-34,.,.
O=C(CCCN1C(=O)c2ccccc2Sc2ncccc21)N1CCN(C2CCCCC2)CC1,104,7,.,.
O=C(c1cc2sccc2n1Cc1ccc(F)cc1)N1CCc2ccccc2C1,102,-9,128,82
Cc1ccc(C)c(NC2=NCCC2)c1,.,2,94,90
O=C(c1ccc2c(c1)N(Cc1ccc(Cl)cc1)C(=O)c1ccccc1S2=O)N1CCCCC1 (stereo unspecified),102,-21,107,88

# Quoted at random: 3 compounds from above
SMILES,GIV-Gai inh,HCMV UL50-53 inh,Sa growth 42C,Sa growth 42C second temp
O=C(c1cc2sccc2n1Cc1ccc(F)cc1)N1CCc2ccccc2C1,102,-9,128,82
CCOCCc1nn2c(=O)cc(COC(=O)c3ccccc3NC(=O)CC(C)C)nc2s1,103,.,91,78
CC1=CC(=C2C(=O)N(c3ccccc3)N=C2C)C=C(C)N1Cc1ccco1,.,3,89,93

# Carrying on:
SMILES,GIV-Gai inh,HCMV UL50-53 inh,Sa growth 42C,Sa growth 42C second temp
Cc1ccccc1S(=O)(=O)Cc1ccc(C(=O)NCc2ccccc2Cl)o1,102,-10,96,85
O=C(Cc1cccs1)NC1CCN(Cc2ccccc2)CC1,100,-14,97,99
CCOC(=O)N1CCC(NCc2ccc(Br)cc2)CC1,103,2,91,91
Cc1ccc(C(=O)Nc2ccc3c(c2)OCCO3)cc1,99,.,99,76
Cc1cc(C(=O)NCc2ccccc2)on1,101,.,93,92
CCn1c2ccccc2c2cc(NC(=O)c3cc(C)on3)ccc21,.,-17,106,92
O=C1CC(Sc2ccccn2)C(=O)N1c1ccccc1 (stereo unspecified),109,2,64,51
CN(C)/C=C1/C(=O)N(c2nc3ccccc3s2)N=C1c1ccccc1,103,-17,.,.
Cc1cc(C(=O)COc2cccc3cccnc23)c(C)n1C,.,-16,85,96
O=C(O/N=C(\Cn1nnc(N2CCOCC2)n1)c1ccc(Cl)cc1)c1ccc(Cl)cc1Cl,104,-19,93,90
Cn1c(=O)c2c(-c3ccc(Cl)cc3)n(Cc3ccccc3)cc2n(C)c1=O,104,-2,117,84
Cc1[nH]c2ccccc2c1C(c1cccs1)N1CCN(c2ccccc2)CC1 (stereo unspecified),.,-8,0.0*,-0.5*
Cc1ccc(Cn2cc(C(=O)c3ccc4c(c3)OCO4)c(=O)c3cc(C)ccc32)cc1,98,-42,70,70

# Compound activity from PubChem BioAssay.
